# GIRK2 act – activators of human GIRK2 potassium channels | P48051 | HEK293-GIRK2 thallium flux, Thallos fluorescence | calls only for hits at 25 µM | 0.05% of 63,000 active;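 active = among the strongest 0.2% of first-round signals and kept after retests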;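 also: first round at about 10 µM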
# Target sequence (P48051 whole entry, looked up): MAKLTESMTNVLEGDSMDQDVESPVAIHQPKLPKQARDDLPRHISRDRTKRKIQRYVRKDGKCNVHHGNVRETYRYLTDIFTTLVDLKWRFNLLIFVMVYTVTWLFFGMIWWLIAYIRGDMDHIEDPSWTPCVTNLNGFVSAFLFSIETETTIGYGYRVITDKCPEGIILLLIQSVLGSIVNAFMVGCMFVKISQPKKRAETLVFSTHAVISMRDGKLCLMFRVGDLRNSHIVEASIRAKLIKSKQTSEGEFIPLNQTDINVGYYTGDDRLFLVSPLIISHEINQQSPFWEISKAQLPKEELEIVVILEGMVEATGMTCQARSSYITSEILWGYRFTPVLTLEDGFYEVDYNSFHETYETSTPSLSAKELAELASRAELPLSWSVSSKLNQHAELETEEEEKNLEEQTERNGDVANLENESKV
# Calls only; i = inactive.
GIRK2 act,mol
i,COc1ccc(C(C)=O)cc1CSc1nc2ccccc2c(=O)n1NC(=O)Cc1ccccc1
i,Cn1cnnc1SCCNC(=O)c1cc(-c2cccs2)[nH]n1
i,COc1ccc(-c2noc(-c3ccc(=O)n(Cc4ncc(C)c(OC)c4C)c3)n2)cc1F
i,Cc1cc(C)c(C)c(S(=O)(=O)Nc2ccc(C(=O)N3CCCCC3)cc2)c1C
i,CC(C)(Oc1ccc(Cl)cc1)C(=O)NCC1(c2ccccc2)CCOCC1
i,O=C(CN1CCN(C(=O)C2COc3ccccc3O2)CC1)c1ccco1 (configuration not stated)
i,COCCN(Cc1ccsc1)C(=O)c1nc2ccccc2s1
i,Cc1csc(NC(=O)c2c[nH]c3c(C(F)(F)F)cccc3c2=O)n1
i,O=C(Nc1cnoc1)c1cc(C2CC2)on1
i,CNC(=O)CSc1nnc(N2CCN(C(=O)/C=C/c3ccc4c(c3)OCO4)CC2)s1
i,CCCCc1ccc(N2CC(C)Cn3c2nc2c3c(=O)n(CCOCC)c(=O)n2C)cc1 (configuration not stated)
i,COc1ccc(-c2cnc(SCC#N)n2-c2ccc(OC(F)F)cc2)cc1
i,Cc1oc(-c2ccc(Cl)cc2[N+](=O)[O-])cc1C(=O)Nc1ccc(F)cc1
i,COC(=O)Cn1c(C2CC(=O)N(c3cccc(OC)c3)C2)nc2ccccc21 (configuration not stated)
i,CC(C)C1Oc2ccccc2C(=O)N(CC(=O)c2ccc(F)cc2)C1=O (configuration not stated)
i,O=C(NCC(c1ccco1)N1CCOCC1)C1CC=CCC1 (configuration not stated)
i,CC(=O)c1ccc(NC(=O)Cn2cnc3c(-c4cccc(C)c4)nsc3c2=O)cc1
i,COc1ccc(Nc2c(C(=O)N3CCCCC3)cnc3nc(C)ccc23)cc1OC
i,CCOC(=O)c1c(NC(=O)COc2cccc3c2CCN(Cc2ccc(Br)cc2)C3=O)sc2c1CCC2
i,O=C(Cc1c[nH]c2ccccc12)Nc1cnc(-n2cccn2)nc1

# Part of the list above in a different format.
smiles	GIRK2 act
Cc1csc(NC(=O)c2c[nH]c3c(C(F)(F)F)cccc3c2=O)n1	i
Cc1oc(-c2ccc(Cl)cc2[N+](=O)[O-])cc1C(=O)Nc1ccc(F)cc1	i
COCCN(Cc1ccsc1)C(=O)c1nc2ccccc2s1	i
O=C(Nc1cnoc1)c1cc(C2CC2)on1	i
COc1ccc(-c2cnc(SCC#N)n2-c2ccc(OC(F)F)cc2)cc1	i

# Continuation.
GIRK2 act,mol
i,COc1ccccc1OCC#CCNS(=O)(=O)c1ccc(Br)s1
i,CC1SC(C)C(=O)N(CC(=O)NCc2ccc(F)cc2)C1=O (configuration not stated)
i,O=C(Nc1ccncc1)C1CCCN(c2ccc(-c3ccco3)nn2)C1 (configuration not stated)
i,COc1cc(C2NC(=O)NC(O)(C(F)(F)F)C2C(C)=O)ccc1OCc1ccc(Cl)cc1 (configuration not stated)
i,COc1ccc(-c2nnc3ccc(OCCNC(=O)Cc4ccccc4)nn23)cc1OC
i,COc1ccc(C)cc1S(=O)(=O)N1CC(c2nc(-c3ccncc3)no2)C1
i,O=C(Nc1ccc2c(c1)OCO2)Nc1ccccc1NC(=O)c1ccccc1F
i,COCCn1c(=O)c2c(nc3n(-c4ccc(C)c(C)c4)c(C)cn23)n(C)c1=O
i,O=C(NCCOc1cccc2cccnc12)c1cc(-c2ccco2)on1
i,COc1ccccc1OCC#CCNS(=O)(=O)c1ccc(F)c(Cl)c1
i,CN1CCOc2ccc(NC(=O)c3cc(-c4cccs4)[nH]n3)cc2C1=O
i,O=C(Nc1ccccc1-c1ccc(=O)[nH]n1)c1ccccn1
i,COc1cc(C(C)=O)ccc1OCC(O)Cn1nc(C)c(C)c1C (configuration not stated)
i,Fc1cccc(Cl)c1CN1CC(c2nc(C3CC3)no2)C1
i,Cn1c(=O)c2c(nc3n2CCN3c2cccc(OC/C=C/c3ccccc3)c2)n(C)c1=O
i,COc1ccc2c(c1)c(CC(=O)NCc1ccccc1C(F)(F)F)c(C)n2C(=O)c1ccc(Cl)cc1
i,CCc1cccc(NC(=O)CSc2ncccc2-c2nc(C)no2)c1
i,COc1ccc(-c2noc(-c3nn(-c4cccc(Br)c4)ccc3=O)n2)cc1
i,Cn1nc(CNS(=O)(=O)c2ccc(OC(F)(F)F)cc2)cc1-c1ccncc1
i,C=CC(C)(O)CC[C@H]1C(=C)CCC2[C@](C)(C(=O)O)CCC[C@@]21C (some centres not stated)
i,CNC(=O)C(=O)NCC1OCCCN1S(=O)(=O)c1ccc(OC)cc1 (configuration not stated)
i,CCOc1c(C)cc(S(=O)(=O)NCC(O)c2ccoc2)cc1C (configuration not stated)
i,NC(=O)CSc1cnn(CC(=O)NCc2ccc(F)c(Cl)c2)c(=O)c1Cl
i,Cc1nn(S(=O)(=O)N2CCCCC2)c(C)c1C
i,COc1cc(C(=O)N(C(=O)N2CCCCC2)c2ccccc2)cc(OC)c1OC
i,Cc1ccccc1N1CC(C)Cn2c1nc1c2c(=O)n(CC(=O)OCc2ccccc2)c(=O)n1C (configuration not stated)
i,Cn1cccc1C(CNC(=O)COc1ccc(Cl)cc1Cl)N1CCCC1 (configuration not stated)
i,COc1ccc(Cl)cc1NC(=O)C1CN(C(=O)c2cnccn2)C1
i,Cc1ccc(N2C(=O)C3N=NN(Cc4nc(-c5ccc(OC(C)C)cc5)no4)C3C2=O)cc1Cl (configuration not stated)
i,O=C(NCCOc1ccc(-c2ccccc2)nn1)c1ccc2nsnc2c1
i,COc1ccc(NC(C)=O)cc1NS(=O)(=O)c1cn(C)nc1C
i,O=C(Nc1nc2c(s1)CN(S(=O)(=O)Cc1cccc(F)c1)CC2)c1ccoc1
i,COC(=O)N1CCc2ccc(Br)cc2C1C(=O)NCC1CCCO1 (configuration not stated)
i,CCN(CC)CCCN1C(=O)c2oc3cc(C)c(C)cc3c(=O)c2C1c1ccc(C)cc1 (configuration not stated)
i,CCN1CCN(c2nc(C)c([N+](=O)[O-])c(Nc3ccc(C)cc3)n2)CC1
i,O=C(N1CC(c2nc(-c3ccc[nH]c3=O)no2)C1)C1(c2cccs2)CCCC1
i,O=C1OC2CC1N(C(=O)c1ccc3c(c1)OCO3)C2 (configuration not stated)
i,COC(=O)CCc1ccc(OCC(O)CNC(C)C)cc1 (configuration not stated)
i,Cc1cccn2c(=O)c3cc(C(=O)NC(C)C)n(Cc4ccccc4)c3nc12
i,Cc1nn(C)cc1S(=O)(=O)Nc1nc2ccccc2[nH]1
i,Cc1nc2n(c(=O)c1CCN1CCC(c3noc4cc(F)ccc34)CC1)CCCC2
i,O=C(NCC(O)c1ccoc1)C(=O)NCC(F)(F)F (configuration not stated)
i,CC(=O)c1cccc(NC(=O)C2COCC(=O)N2Cc2ccccc2)c1 (configuration not stated)
i,O=C(Nc1nccs1)c1cccc(S(=O)(=O)N2CCCCCC2)c1
i,COc1ccc(CNC(=O)c2ccc(Cn3c(C)nc4ccccc43)o2)cc1
i,O=C1CC(c2nc(C3CC3)no2)CN1c1cccc(Cl)c1F (configuration not stated)
i,Cc1c(C(=O)NN2CCCCC2)nn(-c2ccc(Cl)cc2Cl)c1-c1ccc(I)cc1
i,O=C(NCC(F)(F)F)c1cc(-c2ccc(F)cc2)c[nH]1
i,COc1cccc2cc(C(=O)NCc3cnn4ccccc34)oc12
i,Cc1ccc(C)c(S(=O)(=O)Nc2ccccc2F)c1
i,Nc1cc(=O)n(Cc2ccccc2F)c(=O)[nH]1
i,COc1cccc(CSc2nnc3n(C)c(=O)c4ccc(C(=O)NC5CCCC5)cc4n23)c1
i,O=C(CSc1ccc(F)cc1)N1CCC(Cn2cnc3ccccc32)CC1
i,Cc1ccc(NC(=O)Cc2n[nH]c(Cc3ccc(F)cc3)n2)c(F)c1
i,COc1ccccc1C1(CNC(=O)Cc2cn(C)c3ccccc23)CCOCC1
i,COc1cccc(C(=O)Nc2ccc3c(c2)CCCN3C(C)=O)c1OC
i,COc1ccc(Cn2c(=O)c3oc4ccccc4c3n(CC(=O)NCc3ccccc3)c2=O)cc1
i,CCSc1nnc(NC(=O)c2ccc(S(=O)(=O)NCc3cccs3)o2)s1
i,Cc1cc(C(F)(F)F)c(C#N)c(SCCC(=O)Nc2nccs2)n1
i,O=c1cc(Cn2ccnc2)c2cc(O)ccc2o1

# Following part.
GIRK2 act,mol
i,CN(C)S(=O)(=O)N1CCC(Oc2ncccc2Cl)CC1
i,COc1ccc(CCNC(=O)Cn2nc(-c3cccs3)ccc2=O)cc1OC
i,Cc1ccc(S(=O)(=O)Cc2nc(-c3ccc(Cl)cc3)no2)cc1
i,COc1ccc2sc(N(Cc3ccncc3)C(=O)Cc3ccc(SC)cc3)nc2c1
i,O=C(NCCCN1CCN(c2ccccc2)CC1)C(=O)NCCc1ccccc1
i,CS(=O)(=O)CCN(CC#N)Cc1ccc(-c2ccc3ncnc(Nc4ccc(OCc5cccc(F)c5)c(Cl)c4)c3c2)o1
i,Cc1nn(C)c(C)c1S(=O)(=O)NCC1(c2cccs2)CCOCC1
i,CCCCOc1ccccc1NC(=O)/C=C/c1ccccc1OC
i,CCCCCCCCCC(=O)NC(CN1CCOCC1)C(O)c1ccccc1 (configuration not stated)
i,CCOC(=O)c1c(S(=O)(=O)NCc2ccccc2F)n[nH]c1CC
i,CCc1cccc(NC(=O)Cn2c3ccc(C)cc3c3ncn(Cc4nc(CC)no4)c(=O)c32)c1
i,C=C(C)C(=O)O[C@H]1[C@H]2C(=C)C(=O)O[C@@H]2C[C@@H](C)C=CC(=O)[C@](C)(O)[C@@H]1OC(=O)C(=C)C
i,O=C(Cn1nnn(-c2ccc(NC(=O)c3ccccc3F)cc2)c1=O)NCc1ccco1
i,Clc1ccc(/C=C/c2cc(Cl)cc(Cl)c2)cc1
i,CC(=O)c1ccc(NC(=O)c2cccnc2-c2nc3ccccc3s2)cc1
i,COc1ccc(OC)c(S(=O)(=O)N2CCC(Oc3ccc(C#N)cn3)CC2)c1
i,O=C(Cc1csc(Nc2ncccn2)n1)N1CCC(Cc2ccccc2)CC1
i,O=C1NCC(CO)C(=O)N1 (configuration not stated)
i,O=S(=O)(c1cccc(Cl)c1)N1CCC(CSc2ccccn2)CC1
i,O=C(/C=C/c1ccc2c(c1)OCO2)N1CCN(c2ccc(-c3cccnc3)nn2)CC1
i,O=c1c(-c2ccccc2)coc2c3c(ccc12)OCN(CCc1ccccc1)C3
i,O=C(NCC1(O)CCOc2ccccc21)c1nc2ccccc2s1 (configuration not stated)
i,COc1ccccc1N1CCN(C(=O)c2snc3c(=O)n(CC(C)C)c(=O)[nH]c23)CC1
i,CCc1cccc(C)c1NC(=O)Cn1cc(-c2nc(-c3ccc(C)cc3)no2)ccc1=O
i,CC(C)(C)C(O)CCNC(=O)c1cc2ccccc2o1 (configuration not stated)
i,CCOC(=O)c1cccc(NC(=O)Cn2nc3c(Oc4cccc(C)c4C)nccn3c2=O)c1
i,O=C(Cn1cccn1)NCC(Cc1cccc(F)c1)N1CCCCC1=O (configuration not stated)
i,CN(C)S(=O)(=O)c1ccc(C(=O)NCCN2CCN(c3ccccc3)CC2)cc1
i,CN(C(=O)Cn1cc(S(=O)(=O)N2CCCCCC2)ccc1=O)c1ccccc1
i,COc1ccccc1-c1cc2c(=O)n(Cc3ccccc3F)ccn2n1
i,COc1ccc(N2C(=O)C3N=NN(CC(=O)Nc4ccc5c(c4)OCO5)C3C2=O)cc1Cl (configuration not stated)
i,Cc1c(C(=O)N2CCc3nc(NC(=O)c4ccco4)sc3C2)cnn1-c1ccccc1
i,N#Cc1nc(/C=C/c2ccc(Cl)cc2)oc1N1CCN(C(=O)c2ccccc2)CC1
i,CC(C)(C)c1ccc(C(=O)N2CCC3(CC2)CC(=O)c2ccccc2O3)cc1
i,Cc1ccc(C)c(N2CCN(CCCNC(=O)CCc3nnc4n(Cc5ccccc5)c(=O)c5ccccc5n34)CC2)c1
i,COc1ccc(C(=O)N2CCN(c3ncnc4c3nnn4-c3ccc(C)cc3)CC2)c(OC)c1
i,COc1cc(N2CCN(S(=O)(=O)c3cc(C)ccc3OC)CC2)nc(OC)n1
i,COc1ccccc1N1CCN(CCNC(=O)c2ccc(OC)c(OC)c2OC)CC1
i,COc1ccc(-c2cnc(N)nc2-c2ccc(OCc3ccccc3)cc2O)cc1OC
i,CN(CC(=O)Nc1ccc(-n2nnn(C)c2=O)cc1)S(C)(=O)=O

# In a second layout: four of the compounds above
SMILES: COc1cc(N2CCN(S(=O)(=O)c3cc(C)ccc3OC)CC2)nc(OC)n1
- GIRK2 act = i

SMILES: COc1ccccc1N1CCN(CCNC(=O)c2ccc(OC)c(OC)c2OC)CC1
- GIRK2 act = i

SMILES: COc1ccc(-c2cnc(N)nc2-c2ccc(OCc3ccccc3)cc2O)cc1OC
- GIRK2 act = i

SMILES: CN(CC(=O)Nc1ccc(-n2nnn(C)c2=O)cc1)S(C)(=O)=O
- GIRK2 act = i

# Going on with the list:
GIRK2 act,mol
i,CCCCN1C(=O)CCc2cc(NC(=O)c3ccc(OC(C)C)cc3)ccc21
i,O=S(=O)(Cc1ccccc1Cl)N1CCC(c2ccccc2)C1 (configuration not stated)
i,CC1CCN(Cc2nc3ccccc3c3nc4ccccc4n23)CC1
i,CN1CC(c2nc3ccccc3n2CCCc2ccccc2)CC1=O (configuration not stated)
i,COc1cc(NC(=O)COc2cc(C)nc(N3CCCC(C)C3)n2)cc(OC)c1 (configuration not stated)

# These rows are one share of the data, so the mix of outcomes need not match the whole.
